A1 inhib: inducers of caspase activity in MEF A1-2A-BIM cells, primary screen, A1 inhibitor project, cell-based, CaspaseGlo luminescence; caspase-Glo luminescence, 3 h; percent of clofoctol signal, DMSO as zero; caspase activation, % (no concentration beside the values); actives 0.51% (n = 21,000);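 active means most replicate scores above 10, or exactly half above 10 with mean activity above 10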;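 further: effector caspase 3 and 7 activity cleaving a DEVD luciferin substrate; 50 nL library stock added to about 30 µL; numbers are from one replicate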
BJeLR viab HTS: BJeLR cell viability loss, primary screen, luminescence, CellTiterGlo ATP; BJeLR fibroblasts viability, 48 h; HRASV12, hTERT and SV40 LT/ST transformed; actives 0.64% (n = 30,000); viability loss activity score, % (no concentration beside the values); in the data active means viability loss activity score above about 50%; about a fifth of its hits are not listed in these tables;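 further: higher score means fewer live cells and less ATP luminescence; stock transfer was 50 or 100 nL into about 30 µL; 0% = vehicle wells and 100% = a reference killing control; one replicate is shown; the record names a cut of 85%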
* hit, by the source's call; . = not tested or not shown. A portion of the library; rates above refer to the full screens.

SMILES	A1 inhib	BJeLR viab HTS
CC(C)NC(=O)Nc1cccc2c1O[C@@H](CN(C)S(=O)(=O)c1ccc(Cl)cc1)[C@@H](C)CN([C@H](C)CO)C2=O	.	3.0
Cc1ccc(S(=O)(=O)Nc2cccc3c2O[C@@H](CN(C)C(=O)Nc2c(C)noc2C)[C@@H](C)CN([C@@H](C)CO)C3=O)cc1	.	4.8
CCC(C)Sc1nc2c([nH]c3ccccc32)c(=O)n1-c1ccccc1 (centres undefined)	.	2.8
Cc1cc(C)c(C#N)c(SCSc2ccccc2)n1	-1.1	-2.2
C[C@H]1CN([C@@H](C)CO)C(=O)c2cc(NC(=O)Nc3ccc(C(F)(F)F)cc3)ccc2O[C@@H]1CN(C)C(=O)Nc1ccccc1	0.0	-1.1
COc1c(O)cc2oc(-c3ccc(O[C@@H]4O[C@H](CO)[C@@H](O)[C@H](O)[C@H]4O)cc3)cc(=O)c2c1O	-0.2	-0.5
CSc1nnc(-c2ccc(C(C)(C)C)cc2)n1Cc1ccco1	-0.1	-1.3
Cc1ccccc1NS(=O)(=O)c1ccc2[nH]cc(C(=O)N(C)Cc3ccccc3)c(=O)c2c1	0.5	-4.2
C/C=C/C1C2OC3=C(C(=O)OC3(C)O)C(=O)C1(C)C1CC(O)C(C)CC1C2O (centres undefined)	-0.3	5.1
COC(=O)c1nn(-c2ccc(Br)cc2C)c(Br)c1C(=O)OC	-0.3	-1.1
Cc1ccc(S(=O)(=O)N(C)C[C@@H]2Oc3c(NC(=O)C4CC4)cccc3C(=O)N([C@H](C)CO)C[C@@H]2C)cc1	.	2.0
C[C@@H]1CN([C@H](C)CO)C(=O)c2cc(NC(=O)CCCN(C)C)ccc2O[C@H]1CN(C)S(C)(=O)=O	0.0	0.9
O=C(Nc1ccccc1)c1ccccc1	-4.8	3.2
O=C(CSc1nc2c(sc3ccccc32)c(=O)n1CC1CCCO1)c1ccccc1 (centres undefined)	-0.6	5.0
C[C@H](CO)N1C[C@H](C)[C@@H](CN(C)Cc2ccc(Cl)c(Cl)c2)Oc2c(NS(=O)(=O)c3cn(C)cn3)cccc2C1=O	.	-6.5
C[C@@H]1O[C@@H](Oc2c(-c3ccc(O)c(O)c3)oc3cc(O)cc(O)c3c2=O)[C@H](O)[C@H](O)[C@H]1O	0.3	-2.1
CC(C)NC(=O)N(C)C[C@@H]1Oc2ccc(NC(=O)C3CCCCC3)cc2C(=O)N([C@H](C)CO)C[C@H]1C	0.4	0.2
CC(C)NC(=O)N(C)C[C@@H]1Oc2ccc(NC(=O)c3ccncc3)cc2C(=O)N([C@H](C)CO)C[C@H]1C	-0.3	-5.0
CCSC1=N/C(=C\c2ccccc2)C(=O)N1c1ccc(C)c(Cl)c1	.	2.0
C[C@@H]1CN([C@H](C)CO)C(=O)c2cccc(NS(=O)(=O)c3ccc(F)cc3)c2O[C@H]1CN(C)C(=O)Nc1ccccc1	.	7.7
C[C@H]1CN([C@@H](C)CO)C(=O)c2cccc(NC(=O)Nc3ccc(C(F)(F)F)cc3)c2O[C@H]1CN(C)C(=O)Nc1ccc2c(c1)OCO2	.	11
C[C@H]1CN([C@@H](C)CO)C(=O)c2cccc(NS(=O)(=O)c3ccc(F)cc3)c2O[C@@H]1CN(C)Cc1ccc(Oc2ccccc2)cc1	.	-0.9
Cc1cccc(NC(=S)N(CCN2CCCCCC2)Cc2cccs2)c1	.	2.0
Cc1noc(C)c1S(=O)(=O)N(C)C[C@H]1Oc2ccc(NS(=O)(=O)c3cccs3)cc2C(=O)N([C@@H](C)CO)C[C@H]1C	-0.1	-3.1
C[C@@H]1CN([C@H](C)CO)C(=O)c2cc(NC(=O)c3ccncc3)ccc2O[C@@H]1CN(C)Cc1ccc(Cl)c(Cl)c1	-0.6	1.1
C[C@H]1CN([C@@H](C)CO)C(=O)c2cc(NS(=O)(=O)c3ccc(Cl)cc3)ccc2O[C@H]1CN(C)S(=O)(=O)c1cn(C)cn1	0.4	5.2
O=C(COCc1cc(-c2ccc(F)cc2)on1)N1CCOCC1	.	1.0
Cc1ccc(CSc2n[nH]c(-c3ccc(C(C)(C)C)cc3)n2)cc1	-0.2	-6.3
N#C/C(=C(\O)c1ccc(C(=O)c2ccccc2)cc1)c1nc2ccccc2s1	-2.6	3.2
COc1ccc(S(=O)(=O)NC(C)C)cc1	0.1	-7.9
NC1(N)OC(CN2C(=O)c3ccccc3C2=O)CS1 (centres undefined)	-0.7	-5.2
C[C@@H]1CN([C@H](C)CO)C(=O)c2cc(NS(=O)(=O)c3ccc(Cl)cc3)ccc2O[C@H]1CN(C)CC1CC1	0.6	0.7
COc1ccc(C)cc1NS(=O)(=O)c1cccs1	.	-7.0
C[C@@H]1CN([C@@H](C)CO)C(=O)c2cccc(NS(=O)(=O)c3ccccc3)c2O[C@@H]1CN(C)S(=O)(=O)c1ccc(Cl)cc1	.	12
CCc1nnc2c3c(-c4ccc(F)cc4)c(C)sc3ncn12	.	-1.4
CC(C)NC(=O)Nc1cccc2c1O[C@@H](CN(C)Cc1ccc(Oc3ccccc3)cc1)[C@@H](C)CN([C@H](C)CO)C2=O	.	-2.8
C[n+]1ccc(/C=C/c2ccc3c(c2)OCO3)c2ccccc21	0.4	42
CCC(=O)c1c(OCC(N)=O)ccc2c(C)cc(=O)oc12	.	-1.0
CCc1nn(CC(=O)N(C)C2CCCCC2)c(=O)c2cc3cc(C)ccc3n12	0.0	0.7
Cn1c(=O)c2c(ncn2CC(O)COc2ccccc2)n(C)c1=O (centres undefined)	0.6	7.1

Some of the entries so far, as labelled records:
C[C@H]1CN([C@@H](C)CO)C(=O)c2cccc(NC(=O)Nc3ccc(C(F)(F)F)cc3)c2O[C@H]1CN(C)C(=O)Nc1ccc2c(c1)OCO2
  A1 inhib: . | BJeLR viab HTS: 11

C[C@H]1CN([C@@H](C)CO)C(=O)c2cccc(NS(=O)(=O)c3ccc(F)cc3)c2O[C@@H]1CN(C)Cc1ccc(Oc2ccccc2)cc1
  A1 inhib: . | BJeLR viab HTS: -0.9

Cc1cccc(NC(=S)N(CCN2CCCCCC2)Cc2cccs2)c1
  A1 inhib: . | BJeLR viab HTS: 2.0

Cc1noc(C)c1S(=O)(=O)N(C)C[C@H]1Oc2ccc(NS(=O)(=O)c3cccs3)cc2C(=O)N([C@@H](C)CO)C[C@H]1C
  A1 inhib: -0.1 | BJeLR viab HTS: -3.1

An excerpt of these results, with two lines to a compound.
Fields – A1 inhib, BJeLR viab HTS
C[C@H]1CN([C@@H](C)CO)C(=O)c2cc(NS(=O)(=O)c3ccc(Cl)cc3)ccc2O[C@H]1CN(C)S(=O)(=O)c1cn(C)cn1
 : 0.4, 5.2
O=C(COCc1cc(-c2ccc(F)cc2)on1)N1CCOCC1
 : ., 1.0
Cc1ccc(CSc2n[nH]c(-c3ccc(C(C)(C)C)cc3)n2)cc1
 : -0.2, -6.3

The list continues.
SMILES	A1 inhib	BJeLR viab HTS
C[C@H]1CN([C@@H](C)CO)C(=O)c2cccc(NS(=O)(=O)c3ccc(Cl)cc3)c2O[C@@H]1CN(C)S(=O)(=O)c1cccs1	.	-5.0
Cc1noc(C)c1NC(=O)N(C)C[C@H]1Oc2ccc(NS(=O)(=O)c3c(C)noc3C)cc2C(=O)N([C@H](C)CO)C[C@@H]1C	0.4	3.2
Cc1noc(C)c1NC(=O)Nc1cccc2c1O[C@@H](CN(C)C(=O)NC(C)C)[C@H](C)CN([C@@H](C)CO)C2=O	.	-1.4
Cc1ccc(-c2nc3ccc(NCc4cccs4)cc3o2)cc1	-2.4	2.0
Oc1ccc(Cl)c2cccnc12	-0.1	-3.4
COc1ccc(NC(=O)N(C)C[C@@H]2Oc3ccc(NC(=O)Nc4ccccc4)cc3C(=O)N([C@H](C)CO)C[C@H]2C)cc1	0.5	0.0
C[C@@H]1O[C@@H](O[C@H]2[C@@H]3C=CO[C@@H](O[C@@H]4O[C@H](CO)[C@@H](O)[C@H](O)[C@H]4O)[C@@H]3[C@@]3(CO)O[C@@H]23)[C@H](OC(=O)/C=C/c2ccccc2)[C@H](O)[C@H]1O	0.7	-1.9
Cc1cc(C)cc(Oc2coc3c(CN(C)C)c(O)ccc3c2=O)c1	-0.3	0.9
CC(=O)OC[C@@]12C(=O)C[C@@H](C)[C@]3(C[C@@H](c4ccoc4)OC3=O)[C@H]1CC[C@H](O)[C@]21CO1	-0.4	13
C[C@H]1CN([C@@H](C)CO)C(=O)c2cc(NS(=O)(=O)c3cn(C)cn3)ccc2O[C@H]1CN(C)C(=O)Nc1ccc2c(c1)OCO2	1.1	4.1
Cc1ccc(C)c(S(=O)(=O)/N=C(\c2ccccc2)N(C)C)c1	0.7	-8.7
CCn1cc(C(=O)NCCc2ccccc2)c(=O)c2cc(S(=O)(=O)N3CCC(C)CC3)ccc21	.	-1.1
CN(C(=O)c1ccccc1)c1ccc(C(O)(C(F)(F)F)C(F)(F)F)cc1	-0.4	11
COC(=O)C1=CO[C@@H](O[C@@H]2O[C@H](CO)[C@@H](O)[C@H](O)[C@H]2O)[C@H]2[C@@H]1C=CC21C=C([C@H](C)O)C(=O)O1 (some centres undefined)	0.1	6.0
C[C@@H]1CN([C@H](C)CO)C(=O)c2cccc(NC(=O)C3CCCCC3)c2O[C@H]1CN(C)CC1CC1	.	-0.8
CCC(C)NC(=O)C1CCN(S(=O)(=O)CC)CC1 (centres undefined)	1.9	0.7
CC(C)(C)C(=O)Nc1ccc(-c2cc3cc(Cl)ccc3o2)cc1	-0.7	-2.4
C[C@@H]1CN([C@@H](C)CO)C(=O)c2cccc(NC(=O)C3CC3)c2O[C@H]1CN(C)Cc1ccc(-c2ccccc2)cc1	.	-0.1
CCOC(=O)c1ccc(-n2c(C)cc(/C=N/O)c2C)cc1	-0.2	1.0
Cc1cccc(Cl)c1OC(=O)c1cc(C(C)(C)C)nn1C	-0.4	-2.5
CNC[C@@H]1Oc2c(NS(=O)(=O)c3ccccc3)cccc2C(=O)N([C@@H](C)CO)C[C@H]1C	.	5.3
CCCCCC[C@H](O)/C=C/CC1C(=O)CC[C@H](O)C1=O (some centres undefined)	-0.3	-1.1
COc1ccc(CN(C)CCc2ccccn2)c(OC)c1OC	.	-0.7
CC(C)c1cc(C(=O)NCc2ccc(Cl)cc2)no1	.	2.2
CCC1Oc2ccc(C)cc2N(CC(=O)NCC2COc3ccccc3O2)C1=O (centres undefined)	.	-1.4
COc1c(O)cc2c(-c3ccccc3)cc(=O)oc2c1OC	-0.3	-6.0
COc1cc(/C=C/C(=O)O[C@@H]2O[C@H](CO[C@@H]3O[C@H](CO)[C@@H](O)[C@H](O)[C@H]3O)[C@@H](O)[C@H](O)[C@H]2OC(=O)/C=C/c2cc(OC)c(O)c(OC)c2)cc(OC)c1O	-0.3	-6.0
Cc1noc(C)c1S(=O)(=O)Nc1ccc2c(c1)C(=O)N([C@H](C)CO)C[C@@H](C)[C@H](CN(C)Cc1ccncc1)O2	-0.2	0.6
C[C@@H]1CN([C@@H](C)CO)C(=O)c2cc(NC(=O)c3ccncc3)ccc2O[C@H]1CN(C)C(=O)Nc1ccc(F)cc1	0.9	0.5
CC(C)COc1ccc(C(=O)OCCN2CCCCC2)cc1	.	4.7
C[C@H](CO)N1C[C@H](C)[C@@H](CN(C)S(C)(=O)=O)Oc2ccc(NC(=O)C3CCCCC3)cc2C1=O	0.2	0.2
C[C@@H]1CN([C@H](C)CO)C(=O)c2cccc(NS(=O)(=O)c3ccc(F)cc3)c2O[C@@H]1CN(C)Cc1ccc(Oc2ccccc2)cc1	.	0.4
C=C1[C@]2(C)C[C@@H]3C(=C)[C@@]4(C=CC(=O)OC4(C)C)CC[C@@]3(C)[C@]13C(=O)O[C@H](C)[C@]3(O)C2=O	0.0	6.9
C[C@H]1CN([C@@H](C)CO)C(=O)c2cc(NC(=O)C3CC3)ccc2O[C@H]1CN(C)Cc1ccc(Cl)c(Cl)c1	-0.5	-2.0
C[C@@H]1CN([C@@H](C)CO)C(=O)c2cccc(NC(=O)c3cnccn3)c2O[C@@H]1CN(C)S(=O)(=O)c1ccc(Cl)cc1	.	3.6
CC(C)NC(=O)N(C)C[C@H]1Oc2c(NC(=O)Nc3ccc(C(F)(F)F)cc3)cccc2C(=O)N([C@H](C)CO)C[C@@H]1C	.	5.0
CCc1ccc(NC(=O)c2ccc3c(Cl)c4c(nc3c2)CCC4)cc1	-1.3	6.8
CCCC1=NN(c2nc3ccccc3s2)C(=O)/C1=C/N(C)C	-3.8	-0.7
COc1ccc(NC(=O)CC2C(=O)N(c3ccccc3)C(=O)N2C(C)C)cc1 (centres undefined)	.	-1.3
OC(Cc1ccccc1)(c1ccccc1)c1ccccc1NC(=S)NC1CC2C=CC1C2 (centres undefined)	-0.2	-0.4
Cc1noc(C)c1NC(=O)N(C)C[C@@H]1Oc2ccc(NC(=O)Cc3cn(C)c4ccccc34)cc2C(=O)N([C@@H](C)CO)C[C@@H]1C	0.2	-1.4
CCN(CC)c1nc(-c2ccc(F)cc2)cc(C(F)(F)F)n1	.	1.9
C[C@@H]1CN([C@@H](C)CO)C(=O)c2cccc(NC(=O)Nc3ccc(F)cc3)c2O[C@@H]1CN(C)Cc1ccccc1	.	2.8
CS(=O)(=O)N1N=C(c2cccs2)CC1c1ccccc1F (centres undefined)	.	-9.9
CCC(Sc1nnc2sc3ccccc3n12)C(=O)O (centres undefined)	.	5.6
C[C@@H]1CN([C@H](C)CO)C(=O)c2cc(NC(=O)Nc3ccc4c(c3)OCO4)ccc2O[C@H]1CN(C)S(=O)(=O)c1cccs1	0.6	12
COc1ccc(CN(C)C[C@@H]2Oc3c(NC(=O)Nc4ccc(F)cc4)cccc3C(=O)N([C@H](C)CO)C[C@@H]2C)cc1	.	-1.2
